# Screening results deposited in PubChem BioAssay by Southern Research Specialized Biocontainment Screening Center.
# Mtb bLac sens: beta-lactam sensitization of Mtb H37Rv. M. tuberculosis H37Rv growth with meropenem, percent inhibition; hits of this screen are not shown here. inhibition, % at 25 µM. 330,000 compounds, 0.27% hits;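 active = about 74% or more and at least 40 points above the plate without the antibiotic, then above 30% in a dose series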;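 note: growth measured after seven days incubation then overnight dye step; 0% = bacteria only wells and 100% = bacteria with antibiotic; twin plates without the antibiotic show which effects depend on it; some results filed as inactive read as strong as hits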
# An asterisk follows results filed as active. Only part of the results is shown, so the mix of outcomes need not match the whole.
canonical_smiles,Mtb bLac sens
CCO[C@@H]1c2c(ccc3ccc(=O)oc23)OC(C)(C)[C@@H]1O,-0.4
O=C(NCC(c1ccco1)N1CCCC1)c1cc(S(=O)(=O)N2CCCCC2)ccc1Cl (stereo not given),-4.7
Cc1ccc(S(=O)(=O)N2CCN(C(=O)Cn3nc(C)c([N+](=O)[O-])c3C)CC2)cc1,-2.1
C[C@@H]1COC(=O)[C@H](Cc2ccc(F)cc2)CC/C=C\C[C@@H](CC(=O)NCCO)C(=O)N1,0.2
CCN(CC(=O)NCc1cccs1)CC(=O)Nc1ccccc1C,-0.4
CC(C)Cc1nnc(NC(=O)C2=COCCO2)s1,-1.7
CC(=NNC(=O)CSc1nc2ccccc2o1)c1ccco1,6.7
COc1ccc([C@H]2CC(=O)C=C(c3ccc(Cl)c(Cl)c3)C2)cc1,12.7
CC(C)=CC(=O)O[C@@H]1Cc2c(ccc3ccc(=O)oc23)OC1(C)C,-1.8
COc1cccc(NC(=O)CN(C)C(=O)c2csc3c2CCCC3)c1,-2.6
CCOC(=O)c1ccc(NC(=O)C2CC(O)CN2S(=O)(=O)c2ccc(C)cc2)cc1 (stereo not given),-4.9
CC(=O)c1ccc(N2CCN(CC(=O)NC(=O)NCc3ccccc3)CC2)cc1,7.7
CN1C(=O)CSC1=Nc1cccc(Cl)c1,2.1
CCN1C(=NCCc2ccc([N+](=O)[O-])cc2)N[C@@H](c2ccccc2)[C@H](C(=O)OC)[C@H]1C,-11.0
COC(=O)c1cc(Br)ccc1N(Cc1cc(OC)cc(OC)c1)S(C)(=O)=O,2.9
Nc1ccc([N+](=O)[O-])cc1,9.1
C=CC[C@H](CC(=O)NCCO)C(=O)NCCOC(=O)[C@@H](CC=C)Cc1ccc(F)cc1,8.7
O=C(C[C@@H]1C/C=C\C[C@@H](NC(=O)OCC2c3ccccc3-c3ccccc32)C(=O)OCCNC1=O)N[C@@H](CO)Cc1ccccc1,2.3
Cc1cccc(NC(=O)CNC(=O)COC(=O)c2ccco2)c1C,-7.8
COCc1cc(C)nc2sc(C(=O)Nc3ccccc3F)c(N)c12,5.8
COc1ccc(S(=O)(=O)N2CCC(C(=O)NCc3ccncc3)CC2)cc1OC,-1.4
CC(=O)c1ccccc1NC(=O)COC(=O)Cc1cccc(C(F)(F)F)c1,-1.4
CC(OC(=O)Cn1ccccc1=O)C(=O)Nc1cc(Cl)cc(Cl)c1 (stereo not given),2.8
COc1ccc(CNC(=O)CCc2ccc(S(=O)(=O)N3CCCCCC3)cc2)cc1,-6.5
CCOC(=O)C1CCN(C(=O)c2cccc(S(=O)(=O)N3c4ccccc4CC3C)c2)CC1 (stereo not given),1.7
O=C(OCC(=O)N1CCCC1)c1cnc(Cl)c(Cl)c1,1.1
CC(=O)c1cccc(NC(=O)C(C)OC(=O)c2ccc(Br)o2)c1 (stereo not given),-1.1
CC(C)C[C@H](NC(=O)c1nc[nH]c1C(=O)NCCNC(=O)OC(C)(C)C)C(=O)CNCCNC(=O)c1[nH]cnc1C(=O)N[C@@H](C)C(=O)OC(C)(C)C,-10.7
CCN(CC(=O)NCc1cccs1)C(=O)c1ccc(S(=O)(=O)N(CC)c2ccccc2)cc1,-5.1
Cc1cccc([C@@H](NC(=O)OC(C)(C)C)C(=O)OC(C)(C)C)c1,-0.7
Cc1ccccc1-n1ccnc1SCC(=O)Nc1cccc(S(=O)(=O)NC2=NCCC2)c1,3.0
Cc1c(C(=O)N(Cc2ccco2)Cc2cccs2)oc2ccccc12,-0.8
COc1cc(C(=O)Nc2ccn(C)n2)ccc1OC(F)F,-6.8
O=C(COC(=O)CNC(=O)c1ccccc1F)NC12CC3CC(CC(C3)C1)C2,-8.9
Cc1ccc(C(=O)Nc2cccc(S(=O)(=O)N3CCCC3)c2)o1,-6.8
C=CCC[C@@H](Cc1ccc(F)cc1)C(=O)OC[C@@H](Cc1c[nH]c2ccccc12)NC(=O)[C@@H](CC=C)CC(=O)N[C@@H](CO)Cc1ccccc1,-7.8
CC(C)(C)NC(=O)CSc1nc2cc(S(=O)(=O)N3CCCCC3)ccc2o1,-3.4
CC(C)c1ccc(S(=O)(=O)N2CCN(C(=O)CN3C(=O)c4ccccc4C3=O)CC2)cc1,2.4
Cc1c(NS(=O)(=O)c2cc(C(=O)N3CCCC(C)C3)ccc2Cl)c(=O)n(-c2ccccc2)n1C (stereo not given),2.4
O=C(Nc1nc2ccc(Cl)cc2s1)c1cccc(N2C(=O)CCC2=O)c1,-11.4
Oc1cc(O)cc(/C=C/c2ccc(O)c(O)c2)c1,5.8
O=C(COC(=O)[C@H](Cc1ccccc1)NC(=O)c1ccco1)Nc1ccccc1,1.2
COC(=O)c1cc(C(=O)OCC(=O)NC2CCCCCCC2)cc([N+](=O)[O-])c1,63.8
COc1ccccc1NS(=O)(=O)c1ccc(C)c(C(=O)NCc2cccnc2)c1,-1.7
Cc1cccc(O)c1C,-0.9
Cn1c2cc(Br)sc2c2cnn(Cc3c(F)cccc3Cl)c(=O)c21,-1.4
CCn1cnc2c(Nc3cccc(Cl)c3)nc(C#N)nc21,0.9
COCc1ccc(C(=O)N2CCN(CC(=O)N3CCCC3)CC2)cc1,-1.1
COC(=O)C1CCN(S(=O)(=O)c2ccc(Br)s2)CC1,-9.2
CCC(C)[C@H](NC(=O)C1(c2ccccc2)CCN(C(=O)OC(C)(C)C)CC1)C(=O)N[C@@H](C(=O)O)c1ccccc1 (stereo not given in full),-12.4
CCOC(=O)Cc1csc(SCC(=O)Nc2ccc3[nH]c(=O)[nH]c3c2)n1,-9.8
COc1ccc(C2=NCCn3nc4ccccc4c32)cc1,2.3
Cc1cc(C)n2nc(SC(C)C(=O)N(C)C3CCCCC3)nc2n1 (stereo not given),-4.0
O=C(Nc1ccc(F)cc1)Nc1ccc(S(=O)(=O)N2CCCC2)cc1,-1.6
C#CCC(NC(=O)c1ccc(C(F)(F)F)cc1)C(=O)NCCC (stereo not given),-11.1
CCN(CC(=O)Nc1ccc(OC)cc1)C(=O)CSCC(=O)Nc1cc(C)on1,-3.0
CC1Cc2ccccc2N1C(=O)CN1C(=O)NC2(CCCCC2)C1=O (stereo not given),-0.6
Cn1cccc1CC(=O)NNC(=O)Nc1ccccc1F,-5.9
CC(=O)c1ccc(O[C@@H]2O[C@H](CO)[C@@H](O)[C@H](O)[C@H]2O)cc1,-6.1
O=C(COC(=O)CNS(=O)(=O)c1ccccc1)Nc1ncc(Cl)cc1Cl,-7.5

# (cont.)
canonical_smiles,Mtb bLac sens
Cc1onc(-c2ccccc2)c1-c1nnc(CN2CCN(S(=O)(=O)c3ccccc3)CC2)o1,-8.8
CCC(COC(=O)c1ccccc1)Oc1cc(NCc2ccccc2)c2ncn(C(C)C)c2c1 (stereo not given),-6.7
COc1ncnc2c1ncn2CC1COC(C)(C)O1 (stereo not given),-8.1
CC(=O)C[C@@H](O)CC(=O)[C@@H]1OC(=O)[C@H](C)C/C=C\Cc2ccccc21,11.0
O=C(O)[C@H]1CCCN1S(=O)(=O)c1cccc2cccnc12,18.9
CCCC[C@@H](C)C[C@@H](C)C(=O)N(C)[C@@H](CC(C)C)C(=O)N[C@H](C(=O)N(C)[C@H](C(=O)N1C[C@@H](O)C[C@H]1C(=O)N1C(=O)C=C[C@@H]1C)C(C)C)C(C)OC(C)=O (stereo not given in full),3.0
CN(C(=O)c1ccc(NC(=O)Cc2cccc([N+](=O)[O-])c2)cc1)C1CCCC1,10.3
COCCn1cnc2c1c(=O)n(Cc1ccc(Br)cc1)c(=O)n2Cc1ccccc1,8.4
COc1ccc(NS(=O)(=O)c2cccc(C(=O)NCc3ccccc3CN3CCCC3)c2)cc1,-2.9
O=c1ccn([C@@H]2O[C@H](COS(=O)(=O)O)[C@@H](O)[C@H]2O)c(=O)[nH]1,14.2
CC(C)C[C@@H]1CN=C(N)N1C[C@@H]1CCCN1C[C@@H](C(C)C)N1C[C@@H](Cc2ccccc2)N(CCc2ccc(Cl)c(Cl)c2)C1=N,99.5
CC(OC(=O)c1ccc(Cl)c(S(N)(=O)=O)c1)C(=O)NCC1CCCCC1 (stereo not given),-3.8
CSc1ccc(CN(C)C(=O)C2CCN(C(=O)Nc3ccccc3)CC2)cc1,81.2
CN(CC(=O)Nc1ccc(Cl)c(C(F)(F)F)c1)C(=O)/C=C/c1cccs1,-1.6
CCN(CC(=O)NCc1ccc(F)cc1)C(=O)CCNS(=O)(=O)c1cccc(C)c1,-7.7
COc1ccc(OC)c(NC(=O)c2cc3c(cc2Cl)N2CCCCCC2=NS3(=O)=O)c1,-5.4
N#Cc1ccc(S(=O)(=O)N2CCN(CC(=O)Nc3ccccc3C(=O)NC3CC3)CC2)cc1,-5.6
C[C@H](CO)N1C[C@H](C)[C@@H](CN(C)Cc2ccccc2)Oc2c(NC(=O)C3CCCCC3)cccc2C1=O,6.1
C[C@H](CO)N1C[C@H](C)[C@@H](CN(C)S(=O)(=O)c2ccc(F)cc2)Oc2ccc(NC(=O)CCN3CCOCC3)cc2C1=O,4.2
NS(=O)(=O)c1ccc(CCNC(=O)CN2CCN(S(=O)(=O)c3ccccc3F)CC2)cc1,-8.9
Cc1ccc(S(=O)(=O)Nc2ccc3cn[nH]c3c2)cc1C,-1.4
COc1ccc([C@H]2CC(=O)C=C(c3ccc4ncccc4c3)C2)cc1,58.9
CCOC(=O)C1=C(COC(=O)c2cc(S(=O)(=O)N(C)C)ccc2C)NC(=O)NC1C (stereo not given),-0.9
CCOC(=O)c1ccc(N2C(=O)C3CCCN3C2=S)cc1 (stereo not given),-2.9
Cc1ccc(S(=O)(=O)N2CCOCC2)cc1C(=O)NCCc1ccc(Cl)cc1,-9.3
COc1ccc(COC(=O)C2CCN(C(=O)c3ccc(Cl)cc3)CC2)cc1F,4.6
CC(C)C(=O)N1CCN(c2ccc(NC(=O)c3ccco3)cc2Cl)CC1,-1.2
O=C(N[C@@H](Cc1ccccc1)C(=O)OCc1ccccc1)c1nc[nH]c1C(=O)N1CCNCC1,0.9
Cc1cc(NC(=O)COc2ccccc2C(N)=O)no1,-1.2
CN(C(=O)CSc1nncc2ccccc12)c1ccccc1,-2.3

# Overlap with the part before: 7 compounds; new compounds follow.
canonical_smiles,Mtb bLac sens
CCOC(=O)c1ccc(N2C(=O)C3CCCN3C2=S)cc1 (stereo not given),-2.9
Cc1ccc(S(=O)(=O)N2CCOCC2)cc1C(=O)NCCc1ccc(Cl)cc1,-9.3
COc1ccc(COC(=O)C2CCN(C(=O)c3ccc(Cl)cc3)CC2)cc1F,4.6
CC(C)C(=O)N1CCN(c2ccc(NC(=O)c3ccco3)cc2Cl)CC1,-1.2
O=C(N[C@@H](Cc1ccccc1)C(=O)OCc1ccccc1)c1nc[nH]c1C(=O)N1CCNCC1,0.9
Cc1cc(NC(=O)COc2ccccc2C(N)=O)no1,-1.2
CN(C(=O)CSc1nncc2ccccc12)c1ccccc1,-2.3
O=C(Nc1cccc(C(=O)NC2CC2)c1)c1ccc(Cl)c(S(=O)(=O)N2CCOCC2)c1,3.3
Cc1ccc(C(C)C)c(OCC(=O)NNCC(=O)Nc2cccc(F)c2)c1,100.0
CN(CC(=O)Nc1cccc(F)c1)C(=O)c1ccc(N2C(=O)c3ccccc3C2=O)cc1,-7.6
CC(C)(CCC(=S)N1CCOCC1)C1CCCCC1,0.8
CCN(CC)C(=O)c1[nH]cnc1C(=O)Nc1ccc(C)cc1,1.4
COC(=O)C1=C(c2ccc(Cl)c(C(F)(F)F)c2)C[C@@H]2CC[C@H]1N2C(=O)NCCOc1ccc(OC)cc1,1.6
COc1ccc(S(=O)(=O)N(C)C[C@H]2Oc3c(NC(=O)Cc4ccccc4)cccc3C(=O)N([C@H](C)CO)C[C@@H]2C)cc1,2.4
COc1cc2sc3cc(NCc4ccc(C)o4)ccc3c(=O)c2cc1OC,23.4
O=C(CSc1nnc(N2CCCC2)n1-c1ccccc1Cl)N1CCN(c2ccccn2)CC1,-8.8
O=C(CNC(=O)c1ccc(Br)cc1)NC1CC1,-5.6
Cc1ccc(S(=O)(=O)N2CCN(C(=O)CCc3c[nH]c4ccccc34)CC2)c(C)c1,7.5
CN(Cc1c(F)cccc1Cl)C(=O)c1ccc(NC(=O)CC2SC(N3CCCCC3)=NC2=O)cc1 (stereo not given),-6.2
CCOC(=O)C1CCN(S(=O)(=O)c2ccc3c4c(cccc24)C(=O)N3CC)CC1,-5.4
CCOC(=O)[C@H]1[C@H]2COc3ccccc3[C@@H]2N2C(=O)c3ccc(C)cc3NC(=O)[C@@]12C,3.1
Nc1ncnc2c1ncn2[C@@H]1O[C@H](CNCc2ccccc2OCc2ccc(Cl)cc2Cl)[C@@H](O)[C@H]1O,0.4
COc1ccc(NC(=O)CN(C)C(=O)c2cc3c(s2)CCCCC3)cc1,-5.6
NC(=O)c1ccccc1NC(=O)COC(=O)CSCc1cccc(Cl)c1,-1.0
O=C(CSc1ccc([N+](=O)[O-])cc1)Nc1ccccc1N1CCOCC1,1.4
C=CCSc1nnc(NC(=O)C2CC(=O)N(c3ccc4c(c3)OCCO4)C2)s1 (stereo not given),4.6
COc1ccc(OC)c(CN2CCN(CC(=O)Nc3ccccc3C(=O)NC3CC3)CC2)c1,-4.5
Cc1ccc(NC(=O)COC(=O)c2ccc3c(=O)n4c(nc3c2)CCC4)c(Br)c1,16.6
CC(C)Oc1ccc(C(=O)OCC(=O)c2ccc[nH]2)cc1,2.1
COc1ccccc1NS(=O)(=O)c1ccc(C)c(C(=O)NNC(=O)c2csc(N3CCOCC3)n2)c1,-3.6
